2A Renilla – lowers the Renilla signal of an FMDV 2A StopGo reporter; HEK cells with a luciferase reporter of 2A StopGo recoding; Potency, µM (series often up to 57.5 µM), for inactives: top-dose signal change, negative = less light; actives 0.32% (n = 120,000); active means well fitted falling curve with a large enough effect; inconclusive means small, poorly fitted or top-dose-only effect; inactive means no such curve, though single readings can be large or run the other way; note: nearly all actives have a fitted effect of over 55% in size; overnight with compound
2A firefly – lowers the firefly signal of an FMDV 2A StopGo reporter; actives 0.23% (n = 120,000); Potency, µM (titrated, usually from 57.5 µM), for inactives: at the top dose signal change, negative = less light; AID 1745856; HEK cells with a luciferase reporter of 2A StopGo recoding; active = well fitted falling curve with a large enough effect; inconclusive = small, poorly fitted or top-dose-only effect; inactive = no such curve, though single readings can be large or run the other way; note: nearly all actives have a fitted effect of over 60% in size; overnight with compound
* hit, by the source's call; & = joins results of further samples; [ ] = dose if it differs, or a comment. % is set by controls: 0 for no effect and ±100 for the full control effect; potency is the fitted concentration of half-maximal effect.

For Cc1nc2sccn2c(=O)c1S(=O)(=O)NCc1ccccc1 the results were 2A Renilla 10% and 2A firefly -6%.
`CC1CCN(C(=O)c2ccccc2NC(=O)c2nsc3ccccc23)CC1` gave 2A Renilla -8% and 2A firefly 16%.
`COc1ccc(S(=O)(=O)N(CC(=O)Nc2cccc(C(F)(F)F)c2)c2ccc(C)cc2)cc1` gave 2A Renilla -1% and 2A firefly inconclusive.
O=C(c1ccc(F)cc1)N1CCN(CCc2ccncc2)CC1 was read as 2A Renilla -5% and 2A firefly -14%.
For C#CCN1CC(N(C)CCOC(=O)c2ccc([N+](=O)[O-])cc2)CS1(=O)=O (stereo not given) the results were 2A Renilla 13% and 2A firefly 6%.
O=C(Nc1c(NC2CCCC2)c2ccccc2oc1=O)c1ccc(C(F)(F)F)cc1 was read as 2A Renilla -9% and 2A firefly -10%.
O=C(CC1N=C2c3ccccc3N=C(SCc3ccc(Cl)cc3)N2C1=O)NC1CCCCC1 (stereo not given) was read as 2A Renilla -16% and 2A firefly 29%.
For N#Cc1nc(COc2cccc(Cl)c2)oc1NCc1ccco1 the results were 2A Renilla 3% and 2A firefly 173%[activator].
For CC(C)c1noc(-c2ccccc2OCC(=O)Nc2cccc([N+](=O)[O-])c2)n1 the results were 2A Renilla -5% and 2A firefly -10%.
For CCN(CC)c1nc2ccccc2nc1C(=O)Nc1cc(OC)cc(OC)c1 the results were 2A Renilla 15% and 2A firefly 2%.
Screening Cc1cccc(OCCCC(=O)Nc2sc3c(c2C(N)=O)CCC(C)C3)c1 (stereo not given) returned 2A Renilla -13% and 2A firefly 9%.
`Cc1ccc(N2CCN(C(=O)c3cccn4c(=O)c5ccc(Cl)cc5nc34)CC2C)cc1` (stereo not given) gave 2A Renilla -14% and 2A firefly -13%.

Entries from the list above with a halogen, in the order listed:
`COc1ccc(S(=O)(=O)N(CC(=O)Nc2cccc(C(F)(F)F)c2)c2ccc(C)cc2)cc1` gave 2A Renilla -1% and 2A firefly inconclusive.
O=C(c1ccc(F)cc1)N1CCN(CCc2ccncc2)CC1 was read as 2A Renilla -5% and 2A firefly -14%.
O=C(Nc1c(NC2CCCC2)c2ccccc2oc1=O)c1ccc(C(F)(F)F)cc1 was read as 2A Renilla -9% and 2A firefly -10%.
O=C(CC1N=C2c3ccccc3N=C(SCc3ccc(Cl)cc3)N2C1=O)NC1CCCCC1 (stereo not given) was read as 2A Renilla -16% and 2A firefly 29%.
For N#Cc1nc(COc2cccc(Cl)c2)oc1NCc1ccco1 the results were 2A Renilla 3% and 2A firefly 173%[activator].
`Cc1ccc(N2CCN(C(=O)c3cccn4c(=O)c5ccc(Cl)cc5nc34)CC2C)cc1` (stereo not given) gave 2A Renilla -14% and 2A firefly -13%.

More results
For O=C(O)c1cccc(NC(=O)c2cccc(S(=O)(=O)Nc3cccc(F)c3)c2)c1 the results were 2A Renilla -8% and 2A firefly -2%.
`CC1(C)Cc2sc3c(=O)n(Cc4ccc(Cl)cc4Cl)cnc3c2CO1` gave 2A Renilla 2% and 2A firefly 8%.
`CCc1ccc(OCC(O)Cn2nc(-c3ccc(F)cc3)oc2=O)cc1` (stereo not given) gave 2A Renilla 11% and 2A firefly 1%.
`CSc1ccc(CCNC(=O)c2ccc3c(Cl)c4c(nc3c2)CCCC4)cc1` gave 2A Renilla -10% and 2A firefly -15%.
For O=C(NC(=S)NCCc1ccccc1)c1ccc(Cl)cc1 the results were 2A Renilla 66%[activator] and 2A firefly 195%[activator].
For COc1ccc(NC(=O)CSc2nc(-c3cc(OC)c(OC)c(OC)c3)[nH]c2-c2ccc(F)cc2)cc1 the results were 2A Renilla 0% and 2A firefly 37%[activator].
Screening Cc1ccc(NC(=O)C(=O)c2c(C)n(C)c3ccccc23)cc1F returned 2A Renilla 8% and 2A firefly -6%.
COC(=O)C1CCCCN1S(=O)(=O)c1cc(C)ccc1F (stereo not given) was read as 2A Renilla 18% and 2A firefly 4%.
Screening CCCCn1c(N)c(N(C)C(=O)Cn2c(CC)nc3ccccc32)c(=O)[nH]c1=O returned 2A Renilla -9% and 2A firefly 1%.
`CC(=O)Nc1nonc1-c1nnc(SCC(=O)Nc2cc(Cl)ccc2C)n1C` gave 2A Renilla 210%[activator] and 2A firefly 204%[activator].
CCCC12CN3CC(CCC)(CN(C1)C3c1ccc(OC(C)C)cc1)C2=O (stereo not given) was read as 2A Renilla -10% and 2A firefly -7%.
`COc1ccc(N2CCCCS2(=O)=O)cc1S(=O)(=O)N1CCC2(CC1)OCCO2` gave 2A Renilla 0% and 2A firefly -7%.
For O=C(O)c1ccc(CSc2ccc(Cl)cc2Cl)cc1 the results were 2A Renilla 2% and 2A firefly 80%[activator].
Screening CN(C)CCNC1CCN(C)CC1 returned 2A Renilla -8% and 2A firefly 4%.
Screening Cn1nc(C(=O)OCC(=O)Nc2ccc(Cl)c(C(F)(F)F)c2)c2ccccc2c1=O returned 2A Renilla -3% and 2A firefly 2%.
For O=C(CCSCCc1ccccn1)Nc1ccc(Cl)cc1 the results were 2A Renilla 2% and 2A firefly -1%.
Screening Cc1ccc(C)c(CN2CCN(c3nc4c(c(=O)[nH]c(=O)n4C)n3Cc3ccccc3F)CC2)c1 returned 2A Renilla -6% and 2A firefly 2%.
For Cc1ccccc1CSc1nc(-c2ccccc2)nc2c1Cc1c(CO)cnc(C)c1O2 the results were 2A Renilla -13% and 2A firefly -9%.
Screening CN(C)CCNC(=O)C1CCN(c2nc(Cl)nc3nc[nH]c23)CC1 returned 2A Renilla -4% and 2A firefly 0%.
COc1c(C)cccc1C(=O)Nc1ccc2oc(-c3ccncc3)nc2c1 was read as 2A Renilla -12% and 2A firefly -6%.
Screening Cc1ccccc1-c1nc2cc(NC(=O)c3ccc4c(c3)OCCO4)ccc2o1 returned 2A Renilla 5% and 2A firefly 72%[activator].
Cc1ccc(OCC(=O)Nc2ccc3nc(SCC(=O)N4CCOCC4)sc3c2)cc1C was read as 2A Renilla 7% and 2A firefly -2%.
Screening N#CCSc1nnc(-c2cccnc2)n1-c1ccccc1F returned 2A Renilla -14% and 2A firefly -7%.
Cc1cc(NC(=O)C(C)Sc2nnc3c(Cl)cc(Cl)cn23)on1 (stereo not given) was read as 2A Renilla 0% and 2A firefly 3%.
`CCc1ccccc1NC(=O)Cn1c(=O)n(Cc2ccco2)c(=O)c2ccccc21` gave 2A Renilla 11% and 2A firefly 23%.
Screening CC(C)NC(=O)CC1(C(=O)NCc2ccc(F)cc2)CCCC1 returned 2A Renilla 5% and 2A firefly -2%.
`COc1ccccc1Nc1nn2c(=O)c3ccc(C(=O)NC4CCC(C)CC4)cc3nc2s1` (stereo not given) gave 2A Renilla -13% and 2A firefly -11%.
O=C(c1ccccc1)C1CCN(C(=O)/C=C/c2ccccc2F)CC1 was read as 2A Renilla 0% and 2A firefly 125%[activator].
For COc1ccc(C2CC(=O)Oc3c2c(=O)n(C)c2ccccc32)c(OC)c1OC (stereo not given) the results were 2A Renilla 7%&0% and 2A firefly 6%&-11%.
CCc1ccc(CNC(=O)CCc2c(C)nn(-c3ccc(N4CCCC4)nn3)c2C)cc1 was read as 2A Renilla -11% and 2A firefly -15%.
CCC1CC(=O)NC(SC)=C1C#N (stereo not given) was read as 2A Renilla 16% and 2A firefly 16%.
Screening CC(=O)OC(COc1ccccc1)Cn1cnc2cc(C)c(C)cc21 (stereo not given) returned 2A Renilla -3% and 2A firefly 24%.
CCOC(=O)c1cc2c(=O)n3ccccc3nc2n(CC2CCCO2)c1=NC(=O)c1ccc(C)cc1 (stereo not given) was read as 2A Renilla 63%[activator] and 2A firefly -8%.
`COC(=O)c1cn(CC(=O)Nc2cccc(C(C)=O)c2)c2ccccc12` gave 2A Renilla -2% and 2A firefly 4%.
Screening CCOC(=O)c1cc2cccc(C(C)C)c2[nH]1 returned 2A Renilla -10%[1.06 µM] and 2A firefly 10%.
For Cc1ccc(CNC(=O)c2c(O)nc3ccccn3c2=O)cc1 the results were 2A Renilla 40%[activator] and 2A firefly 79%[activator].
`CCCNC(=O)C1CCC(Cn2c(=O)c3sccc3n(CC(=O)N(CC)CC)c2=O)CC1` (stereo not given) gave 2A Renilla -3% and 2A firefly 0%.
Screening CN(C(=O)CSc1nnc(-c2ccccc2F)o1)C1(c2ccccc2Cl)CCCCC1=O (stereo not given) returned 2A Renilla 64%[activator] and 2A firefly 30%[activator].
Screening CC(C)(C)NC(=O)NC(=O)Cn1c(=O)c2c(ncn2Cc2ccccc2)n(Cc2ccccc2)c1=O returned 2A Renilla 39%[activator] and 2A firefly 22%.
CCS(=O)(=O)c1ccccc1C(=O)N1CCN(c2nc3ccccc3s2)CC1 was read as 2A Renilla -4% and 2A firefly 11µM*.
For CC(Sc1nc2cc(S(=O)(=O)N3CCCCC3)ccc2o1)C(=O)Nc1ccccc1 (stereo not given) the results were 2A Renilla 20% and 2A firefly 34%[activator].
`O=S1(=O)CCN(Cc2ccccc2)c2c(F)nc(N3CCOCC3)c(F)c21` gave 2A Renilla 23% and 2A firefly 25%.
CCc1ccc(N2C(=O)CS(=O)(=O)C23C(=O)N(Cc2ccccc2F)c2ccccc23)cc1 (stereo not given) was read as 2A Renilla 8% and 2A firefly 4%.
`CC1=C(C(=O)Nc2ccccc2)C(c2ccccc2Cl)n2ncc(C(=O)Nc3cccc(C)c3)c2N1` (stereo not given) gave 2A Renilla -4% and 2A firefly -13%.
CC(NC(=O)c1nccnc1N)c1cccs1 (stereo not given) was read as 2A Renilla -4% and 2A firefly 18%.
For Nc1cc(=O)[nH]c(SCc2c(Cl)cccc2Cl)n1 the results were 2A Renilla 38%[activator] and 2A firefly 40%[activator].
Screening COc1cc(C2SCCS2)ccc1OC(=O)c1ccc2ncsc2c1 returned 2A Renilla 0% and 2A firefly inconclusive.
For COc1cccc(NC(=O)CCSc2nnc3scc(-c4ccccc4)n23)c1 the results were 2A Renilla 47%[activator] and 2A firefly 59%[activator].

A portion of the results above, as a working copy:
`CCCNC(=O)C1CCC(Cn2c(=O)c3sccc3n(CC(=O)N(CC)CC)c2=O)CC1` (stereo not given) gave 2A Renilla -3% and 2A firefly 0%.
Screening CN(C(=O)CSc1nnc(-c2ccccc2F)o1)C1(c2ccccc2Cl)CCCCC1=O (stereo not given) returned 2A Renilla 64%[activator] and 2A firefly 30%[activator].

Random excerpt: 4 compounds from above, in no set order.
For Cc1ccc(CNC(=O)c2c(O)nc3ccccn3c2=O)cc1 the results were 2A Renilla 40%[activator] and 2A firefly 79%[activator].
For N#Cc1nc(COc2cccc(Cl)c2)oc1NCc1ccco1 the results were 2A Renilla 3% and 2A firefly 173%[activator].
Screening Cc1ccc(NC(=O)C(=O)c2c(C)n(C)c3ccccc23)cc1F returned 2A Renilla 8% and 2A firefly -6%.
For C#CCN1CC(N(C)CCOC(=O)c2ccc([N+](=O)[O-])cc2)CS1(=O)=O (stereo not given) the results were 2A Renilla 13% and 2A firefly 6%.

More records:
Screening COc1ccc(Cl)cc1NC(=O)c1cc(S(=O)(=O)NC2CCCCCC2)ccc1F returned 2A Renilla 134%[activator] and 2A firefly -18%.
For Cc1oc(-c2ccccc2Cl)nc1CS(=O)CC(=O)N1CCN(c2cccc(C(F)(F)F)c2)CC1 (stereo not given) the results were 2A Renilla inconclusive and 2A firefly inconclusive.
Cc1cc(C)n2nc(N(Cc3cccc(C#N)c3)S(=O)(=O)c3ccccc3)nc2n1 was read as 2A Renilla 232%[activator] and 2A firefly 5%.
For N#Cc1cccc(NC(=S)NCc2ccccc2)c1 the results were 2A Renilla 219%[activator] and 2A firefly 0%.
For COc1ccccc1CNC(=O)C(=O)NCC(c1cccs1)S(=O)(=O)c1ccc(F)cc1 (stereo not given) the results were 2A Renilla -8% and 2A firefly -22%.
Clc1cccnc1SCc1cc(Cl)c2c(c1)OCCO2 was read as 2A Renilla 6% and 2A firefly 17%.
Screening CCCCN(C)c1ncnc2c1sc1nc(-c3ccco3)c3c(c12)CC(C)(C)OC3 returned 2A Renilla -8% and 2A firefly -12%.
Cc1ccc2nc(-c3ccc(O)cc3)c(C)c(C(=O)O)c2c1 was read as 2A Renilla -11% and 2A firefly -11%.
Screening CCOc1ccc(NC(=O)CN2C(=O)c3ccccc3Sc3ccc(C(=O)OC)cc32)cc1 returned 2A Renilla 9% and 2A firefly 14%.
Screening Cc1ccc(CNC(=O)CC23CC4CC(CC(C4)C2)C3)cc1 returned 2A Renilla 24% and 2A firefly 22%.
Screening COc1cc(NC(=O)Cn2ncc3c(=O)oc4ccccc4c32)cc(OC)c1OC returned 2A Renilla -7% and 2A firefly -14%.
For CCOc1ccc2nc(SCCNCCO)sc2c1 the results were 2A Renilla -1% and 2A firefly 21%.
Screening COC(=O)c1c(NC(=O)COc2ccccc2Cl)sc2c1CCC(C(C)(C)C)C2 (stereo not given) returned 2A Renilla 0% and 2A firefly -13%.
For CCOc1ccc(S(=O)(=O)NCCO)c2ccccc12 the results were 2A Renilla 237%[activator] and 2A firefly 5%.
`CC(C)c1noc(CCCC(=O)Nc2ccccc2OC2CCCC2)n1` gave 2A Renilla 0% and 2A firefly -4%.
For COc1cc(CN(C(=O)COc2ccc(C)cc2)c2ccccn2)cc(OC)c1OC the results were 2A Renilla 34%[activator] and 2A firefly 40%[activator].
Screening CN(C)S(=O)(=O)c1ccc2c(c1)N(CC(=O)NCc1ccc(F)cc1)C(=O)CS2 returned 2A Renilla 2% and 2A firefly -9%.
`CCn1c(=O)c2sccc2n2c(CCCC(=O)N3CCN(c4cccc(Cl)c4)CC3)nnc12` gave 2A Renilla -7% and 2A firefly -10%.
Screening CCCN1CCN(CCCNC(=O)c2cc3c(=O)n(CC)c4ccccc4c3s2)CC1 returned 2A Renilla 55%[activator] and 2A firefly 108%[activator].
Screening CCN(CC)C(=O)Cc1nc(-c2cccs2)oc1C returned 2A Renilla 105%[activator] and 2A firefly 3%.

Source: PubChem BioAssay

Some of the compounds tested; the hit share may differ from the screen's.
